RN4220 kill – kills Staphylococcus aureus RN4220; S. aureus RN4220 growth, OD600, 16 h; inhibition, % (concentration not given with the values); hit rate 0.33% among 330,000;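 active = z-score of -3 or lower and OD600 up to 0.18 on both plates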;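 also: plate controls were untreated cells for no effect and reference antibiotic for full effect; stock transfer was 100 nL into about 80 µL; one replicate is shown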
PrP UTR inh – inhibition of PrP 5' UTR reporter expression; cell-based PrP 5' UTR mRNA reporter, plate reader; inhibition, % (no concentration beside the values); hit rate 0.35% among 340,000;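 active = every replicate at 50% or more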;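 also: 0 = median of the neutral control wells; tested in H4 reporter cells; numbers are from one replicate; inactives centre near -14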
ugtP null kill – growth inhibition of S. aureus ugtP deletion strain; S. aureus RN4220 ugtP deletion, OD600 growth, 16 h; some inactives read as strong as hits; growth inhibition, % (no concentration beside the values); hit rate 0.54% among 330,000; AID 1259309;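 active = z-score under -3 and OD600 up to 0.15 on both plates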;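 also: plate controls were untreated wells for no effect and antibiotic for full effect; wells of about 80 µL received 100 nL stock; the first replicate is given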
Bead autofluor – counter-screen for toxin protease inhibitors: compound fluorescence; compound autofluorescence counterscreen, microsphere flow cytometry; stronger effect = higher value; fluorescence intensity (no concentration beside the values); hit rate 3.1% among 360,000; AID 624483;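 active = at least 3 SD above the mean of all compounds, about 16000 in these data; inconclusive = too few beads counted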;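 also: 100 nL of 1 mM stock went into each well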
BJeLR viability – kills HRASV12-expressing BJeLR cells; BJeLR (HRASV12) viability, CellTiter-Glo ATP luminescence, 48 h; reference of the scale not given here; inhibition, % (no concentration beside the values); hit rate 0.17% among 300,000; AID 1554;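 active = replicate mean above 50%; inconclusive = above 50% but judged a plate artefact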;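 also: 50 nL library stock added to about 25 µL; numbers are from one replicate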
Mtb hypoxia rep – inhibitors of hypoxia-regulated fluorescent reporter in Mycobacterium tuberculosis; hit rate 0.1% among 300,000; fluorescence inhibition, % (no concentration beside the values); M. tuberculosis hypoxia-regulated fluorescent reporter, fluorescence; AID 1159583;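 active = 35 to 45% if threefold the growth effect, above 45% if 1.5-fold the growth effect; inactive = the rest, general growth blockers included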;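 also: wells of about 50 µL received 100 nL stock; 0% = vehicle wells and 100% = reference inhibitor wells; whole bacteria with a GFP reporter of the hypoxia response; strong numbers were not always called active; many hits fall short of the cut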
Mtb hypoxia rep growth – second read-out of Mtb hypoxia rep, no call of its own (marks repeat the call); growth inhibition, %; measured here: M. tuberculosis growth (absorbance);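 0% = vehicle and 100% = reference antibiotic; read after six days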
Starred values were filed as active, the others as inactive; ? = inconclusive; . = no result given; & = joins results of further samples. Outcome played no part in choosing rows (roughly 4.1% active in at least one column).

molecule	Bead autofluor	Mtb hypoxia rep growth	BJeLR viability	RN4220 kill	PrP UTR inh	ugtP null kill	Mtb hypoxia rep
CCCCCCCc1c(C)nc(N2CCOCC2)[nH]c1=O	11361	-2	0	6.2	-32	3	5
Cc1nn2c3c(cnc2c1-c1ccccc1)C(=O)CC(c1ccco1)C3 (stereo unspecified)	5970	17	-6	-4.4	-20	19	11
CCOC(=O)CN1C(=O)CC(c2ccccc2)C1=O (stereo unspecified)	4308	-5	6	1.4	2	4	-7
COc1ccc(C2CC(c3ccc(F)cc3)Nc3nc(N)nn32)cc1OC (stereo unspecified)	5504	.	1	4.9	-21	8	.
O=C(Nc1nc(-c2ccccc2)c(-c2ccccc2)o1)c1ccc(F)cc1	3584	19	-7	99*	11	96*	11
CS(=O)(=O)N1CCN(c2ccccc2NC(=S)NC(=O)c2ccccc2[N+](=O)[O-])CC1	5653	-6	-4	6.0	-10	20	7
COc1cccc(-c2nc(CCl)cs2)c1OC	4244	8	0	12	-3	12	16
O=C(Nc1cnn(C23CC4CC(CC(C4)C2)C3)c1)c1cnn2cccnc12	7450	15	-4	7.0	-108	-5	8
CC(=O)c1ccc(N2CCN(C(=O)Cc3n[nH]c(=O)c4ccccc34)CC2)cc1	5317	10	-23	3.0	-2	5	-4
O=C(OC1CCOC1=O)c1cc(-c2cccc(Br)c2)nc2ccccc12 (stereo unspecified)	4209	3	6	0.4	-28	12	3
CN1CCC(OC(=O)c2cccc(F)c2)CC1	3941	-6	-6	-0.4	-22	1	3
Cc1cc(C)nc(N2CCN(C(=O)CCC(=O)Nc3nnc(C(C)C)s3)CC2)n1	.	-1	1	0.2	-23	0	-2
C[C@@]12CCC=C[C@H]1[C@H](c1ccoc1)N(Cc1ccccc1)C2=O	2950	.	0	.	-15	.	.
NC(Cc1ccc([N+](=O)[O-])cc1)=NOC(=O)c1ccc([N+](=O)[O-])cc1	.	9	.	-7.6	.	-6	-3
CN(c1ccc(OCC(=O)N2CCOCC2)cc1)S(=O)(=O)c1ccc(F)cc1	?	-5	8	-0.7	-2	1	-3
CC(C)[C@H](NC(=O)N1c2ccccc2NC(=O)[C@@H]1C(C)C)C(=O)N[C@H](Cc1ccccc1)C(=O)O	5454	.	-3	1.7	-12	3	.
CCOc1cccc(/C=N/Nc2nc(N3CCCC3)nc(N3CCCC3)n2)c1O	4114	.	0	.	-2	.	.
S=C(Nc1ccc(Br)cc1Cl)NN1CCOCC1	3491	-1	-4	1.3	-27	11	-4
CC(Oc1ccccc1Cl)C(=O)Nc1ccc(S(=O)(=O)N2CCCC2)cc1 (stereo unspecified)	5486	12	-1	-1.8	-4	-4	3
O=C(CSc1nnc(Nc2ccccc2F)s1)NC1CCCC1	3485	1	.	2.6	-29	4	14
CCC1CCCCN1CCCNC(=O)Cn1ncc2c(C)n(Cc3ccccc3Cl)c(C)c2c1=O (stereo unspecified)	6087	.	-5	-0.1	-44	1	.
O=C(CCCC(=O)N1CCN(c2ccc([N+](=O)[O-])cc2)CC1)c1ccccc1	2345	0	-14	8.1	-15	-4	-4
CCOc1ccc(S(=O)(=O)N2CCN(C)CC2)c(C)c1C	3684	.	-1	1.6	-15	4	.
O=C(Nn1cnc2ccccc2c1=O)c1ccccc1Cl	9538	6	-8	3.3	-22	0	4
COc1ccccc1COCC(O)CN1CCCCC1CO (stereo unspecified)	3533	-1	8	1.8	-11	4	2
CCS(=O)(=O)c1nc(S(=O)(=O)c2ccc(Cl)cc2)c(NCCCN2CCCC2=O)s1	3067	-8	1	4.9	8	15	-14
Cc1ccc(C)c(NC(=O)CSc2nnc(-c3ccccc3C)o2)c1	16061	-2	2	-4.5	-24	15	1
COCCCN1C(=O)C(=O)/C(=C(/O)c2ccc(OC)cc2)C12C(=O)N(C)c1ccccc12 (stereo unspecified)	5800	.	4	0.4	-14	-4	.
O=C(C1CC1)N(CCc1ccccc1)Cc1nc2ccccc2c(=O)[nH]1	4198	.	.	5.8	-10	-5	.
CCC(=O)Nc1cccc(-c2nnc(SCC(=O)NCc3ccco3)n2C)c1	?	-2	-1	1.2	-11	-2	-2
CCN(CC)c1ccc(/C=N/NC(=O)CNC(=O)/C=C/c2ccco2)cc1	4369	.	0	.	12	.	.
O=c1[nH]c(-c2ccco2)nc2sc3c(c12)CCCC3	2454	2	-5	4.0	-82	-4	1
Cc1ccc(CCNC(=O)C(C)n2nc(C)c3c(C)n(-c4ccccc4)nc3c2=O)cc1 (stereo unspecified)	5065	0	-4	3.0	-9	3	8
O=C(NCCS(=O)(=O)N1CCCCC1)c1ccc2c(c1)OCO2	?	4	-9	4.5	-23	6	11
C=CCn1c(O)c(C(C)=NCCc2ccccc2)c(=O)[nH]c1=O	15331	9	-8	1.9	-11	-11	9
CCN(C[C@H]1N[C@@](C)(C(=O)OC)[C@H]2C(=O)N(C)C(=O)[C@@H]12)S(=O)(=O)c1ccc(OC(F)(F)F)cc1	3219	8	.	0.8	-13	9	5
COc1ccc(Oc2cn[nH]c2-c2ccc(OCC(=O)NN)cc2O)cc1	3796	-13	-2	0.1	-7	-1	-6
COc1ccccc1NC(=O)C(C)OC(=O)c1cccc(-n2cnnn2)c1 (stereo unspecified)	4785	4	-13	5.4	-13	10	1
COc1cc([C@@H]2[C@H]3CN(C)CC=C3C(C#N)=C(N)C2(C#N)C#N)cc2c1OCO2	2806&10107	2&4	-5	1.9&1.7	-5&-4	3&3	6&3
COc1ccc(Cc2nc3ccccc3n2CC(=O)NN=Cc2ccc(O)cc2)cc1OC	.	1	.	4.3	.	4	7
O=[N+]([O-])c1cccc(-c2cn(-c3ccccc3)c(=S)[nH]2)c1	2549	3	-7	1.9	-25	-2	3
O=C(O)COc1ccc(Cl)cc1Cl	4325	19	4	1.1	-7	-1	-5
Cc1ccc(C(=O)ON=C(N)c2cccc([N+](=O)[O-])c2)cc1	.	2	.	2.0	.	-3	5
O=C(Nc1ccc2c(c1)OCO2)c1cc2ncc(Br)cn2n1	2539	.	7	0.2	-26	-14	.
Cc1ccc(-c2nnc(-c3ccccc3)o2)cc1Br	4534	.	-2	8.5	-124	-14	.
Cc1onc(-c2ccccc2)c1C(=O)NN=Cc1c(F)cccc1Cl	.	-5	.	21	.	7	7
CCCCN(C(=O)CSc1nnnn1C)C1CCS(=O)(=O)C1 (stereo unspecified)	3924	50	.	1.3	-7	10	26
COc1ccc(NS(=O)(=O)c2cccc(C(=O)NNC(=O)NCCCl)c2)cc1	3271	-1	-11	0.3	20	4	12
CC(=O)c1ccc(NC(=O)CCc2nnc3ccc(NCc4ccco4)nn23)cc1	4607	-8	-2	-4.5	-25	-6	-5
Cc1c(C(=O)NCCSCc2ccc(F)cc2)cnn1-c1ccc(Cl)cc1	3710	11	-7	-3.6	-16	7	9

The list goes on.
molecule	Bead autofluor	Mtb hypoxia rep growth	BJeLR viability	RN4220 kill	PrP UTR inh	ugtP null kill	Mtb hypoxia rep
O=C(NCc1ccco1)C(NS(=O)(=O)c1cccc2nsnc12)c1ccccc1 (stereo unspecified)	3389	3	-11	3.5	-11	10	17
CCOC(=O)/C(C#N)=C/c1ccc(N2CCN(Cc3ccccc3)CC2)cc1	3013	2	-17	5.5	-11	7	8
O=C(CCc1nnc(Cc2cccc(C(F)(F)F)c2)o1)NC1CC1	4281	4	8	0.5	-11	9	4
COC(=O)C1=C(C)Nc2nc(-c3ccccc3)nn2C1c1ccc(C)o1 (stereo unspecified)	4559	.	-5	2.5	-5	21	.
Cc1ccnc(NC(=O)Cn2c(=O)oc3ccccc32)c1	6791	0	-1	0.6	-19	12	10
Cc1nn(-c2ncc(C(F)(F)F)cc2Cl)c(=O)n1-c1ccc(F)cc1	3290	24	-6	8.3	-7	4	7
Cc1nn(Cc2cccc(C(=O)O)c2)c(C)c1[N+](=O)[O-]	4372	10	-9	5.5	1	4	12
O=C(N/N=C1\CCCc2oc(C(=O)O)cc21)c1ccccc1	4152	.	-3	.	-6	.	.
CCC(NC(=O)c1ccccc1NC(=O)c1ccccc1)C(=O)NNC(=O)CSc1nc2ccccc2o1 (stereo unspecified)	2348	2	2	-2.5	-18	8	-2
Cc1cccc(NC(=O)CSc2nnc(CSc3nc(C)cc(C)n3)o2)c1	4506	17	-14	4.3	-15	-2	5

Sorted by molar mass (low to high): some entries from above
molecule	Bead autofluor	Mtb hypoxia rep growth	BJeLR viability	RN4220 kill	PrP UTR inh	ugtP null kill	Mtb hypoxia rep
O=C(O)COc1ccc(Cl)cc1Cl	4325	19	4	1.1	-7	-1	-5
O=C(N/N=C1\CCCc2oc(C(=O)O)cc21)c1ccccc1	4152	.	-3	.	-6	.	.
Cc1ccc(C(=O)ON=C(N)c2cccc([N+](=O)[O-])c2)cc1	.	2	.	2.0	.	-3	5
C=CCn1c(O)c(C(C)=NCCc2ccccc2)c(=O)[nH]c1=O	15331	9	-8	1.9	-11	-11	9
Cc1ccc(-c2nnc(-c3ccccc3)o2)cc1Br	4534	.	-2	8.5	-124	-14	.
Cc1onc(-c2ccccc2)c1C(=O)NN=Cc1c(F)cccc1Cl	.	-5	.	21	.	7	7
O=C(Nc1cnn(C23CC4CC(CC(C4)C2)C3)c1)c1cnn2cccnc12	7450	15	-4	7.0	-108	-5	8
COc1ccccc1NC(=O)C(C)OC(=O)c1cccc(-n2cnnn2)c1 (stereo unspecified)	4785	4	-13	5.4	-13	10	1
COc1ccc(Oc2cn[nH]c2-c2ccc(OCC(=O)NN)cc2O)cc1	3796	-13	-2	0.1	-7	-1	-6
CCOC(=O)/C(C#N)=C/c1ccc(N2CCN(Cc3ccccc3)CC2)cc1	3013	2	-17	5.5	-11	7	8
CC(=O)c1ccc(N2CCN(C(=O)Cc3n[nH]c(=O)c4ccccc34)CC2)cc1	5317	10	-23	3.0	-2	5	-4
COc1ccc(NS(=O)(=O)c2cccc(C(=O)NNC(=O)NCCCl)c2)cc1	3271	-1	-11	0.3	20	4	12
CC(C)[C@H](NC(=O)N1c2ccccc2NC(=O)[C@@H]1C(C)C)C(=O)N[C@H](Cc1ccccc1)C(=O)O	5454	.	-3	1.7	-12	3	.

Other entries follow.
molecule	Bead autofluor	Mtb hypoxia rep growth	BJeLR viability	RN4220 kill	PrP UTR inh	ugtP null kill	Mtb hypoxia rep
O=S(=O)(Nc1nc2ccccc2nc1Cl)c1ccc(Br)cc1	4827	-4	9	23	-13	-10	16
CC1SC(C)C(=O)N(CC(=O)Nc2ccc3c(c2)OCO3)C1=O (stereo unspecified)	2334	9	.	-3.7	-30	-13	6
Cc1cc(=O)oc2cc(OCc3ccc(C(=O)N4CCN(c5ccccc5)CC4)cc3)ccc12	2446	7	-14	-3.4	-12	-12	-5
O=C(CC1NS(=O)(=O)OC2CCCCC12)c1ccccc1 (stereo unspecified)	.	7	.	0.8	.	2	1
CC(C)OCCCn1c(=NC(=O)c2cccs2)c(C#N)cc2c(=O)n3ccccc3nc21	4334	2	1	2.8	.	-4	11
COc1ccc(CC(NC(C)=O)C(=O)NC2CCN(c3ncccc3[N+](=O)[O-])CC2)cc1 (stereo unspecified)	4624	8	-1	3.9	-35	7	2
O=C(Cc1ccc(F)cc1)NC1CCCCCC1	3824	28	-3	0.2	-21	3	18
COCc1ccc(-c2c(-c3cccc(OC)c3)sc3ccc(OC)cc23)cc1	3903	2	.	-2.6	-21	33	-3
CCn1c(-c2cc(-c3cc(C)ccc3C)nc3ccccc23)n[nH]c1=S	2224	4	5	-2.5	-28	5	-17
CC(=O)c1ccc(N(C(=O)Cn2nnc3ccccc32)C(C(=O)NCc2ccccc2)c2ccccn2)cc1 (stereo unspecified)	2412	3	10	6.1	-10	11	11
CC(C)(C)c1cc(NC(=O)CCl)n(-c2ccccc2)n1	4713	19	0	4.0	-4	2	24
Cc1ccc(C(=O)N(CN2CCCC2=O)c2ccc(F)cc2)cc1C	10504	5	3	2.2	-2	2	4

Screening results as filed in PubChem BioAssay.
